HPGD inh = qHTS Assay for Inhibitors of HPGD (15-Hydroxyprostaglandin Dehydrogenase); purified HPGD, NADH fluorescence kinetic, PGE2 substrate; 150,000 tested, 4.3% active; Potency, µM, without a hit: at the highest dose activity change, negative = inhibition, most hits filed as inhibitors; active = well fitted inhibition curve with a large enough effect (not every such curve was filed as active); inconclusive = small, poorly fitted or top-dose-only effect, or another doubt; inactive = no such curve, though single readings can be large or run the other way;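 also: top concentration of the series not given in the record; plate controls included wells without enzyme; inactives centre near -10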
Target sequence (P15428 whole entry, looked up): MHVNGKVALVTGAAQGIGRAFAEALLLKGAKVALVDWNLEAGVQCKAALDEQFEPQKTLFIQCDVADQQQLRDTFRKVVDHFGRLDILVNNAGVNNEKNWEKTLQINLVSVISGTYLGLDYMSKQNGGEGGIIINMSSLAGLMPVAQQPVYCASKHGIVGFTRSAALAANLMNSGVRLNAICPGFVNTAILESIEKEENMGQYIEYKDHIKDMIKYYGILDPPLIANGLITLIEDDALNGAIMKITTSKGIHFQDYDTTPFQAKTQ
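20 nM HPGD preincubated 15 min at room temperature with compound in 50 mM Tris-HCl pH 8, 0.01% Tween 20. Started with 1 mM NAD+ and 30 uM prostaglandin E2; NADH fluorescence (360/450 nm) read 5 times over 30-s intervals, last minus first.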
Active calls of the source: *; ? = inconclusive; [ ] = dose if it differs, or a comment. % is scaled to controls: 0 for no effect and ±100 for the full control effect; potency is read from the fitted curve at half-maximal effect.

SMILES	HPGD inh
COc1ccccc1CC(=O)N(CCC#N)CCC#N	-3%
CC(=O)c1cc(F)c(N2CCN(C(=O)COc3ccccc3F)CC2)cc1C	-4%
O=C(Nc1ccc2oc(-c3ccncc3)nc2c1)c1c(F)c(F)c(F)c(F)c1F	-26%
Cc1cc(C)cc(N(C(=O)c2sc(C)nc2C)C(C(=O)NCc2ccco2)c2ccccc2)c1 (configuration not stated)	-16%
CC(C)Nc1nc(Cl)nc(NCCOc2ccccc2)n1	-4%
C(=N\n1cnnc1)/c1ccc(OC2CSC2)cc1	-13%
CC1(C)Cc2c(sc3ncn(N)c(=N)c23)CO1	-2%
CCOC(=O)c1sc(NC(=O)CSc2nc(C)cc(C(F)(F)F)n2)c(C#N)c1C	3.5µM*
C=CCn1c(=O)n(CC=C)c(=O)n(CC=C)c1=O	-2%
N#Cc1ccc(CN2CC[C@@]3(CCCN(C(=O)c4cnccn4)C3)C2)cc1	-3%
Cc1cccc(-n2c(SCC(=O)N3CCCC3)nnc2-c2ccccn2)c1C	-13%
COC(=O)c1ccc(Cn2c(CN3CCOCC3)nc3ccccc3c2=O)o1	-13%
c1ccc2c(N3CCCCC3)nnc(N3CCCCC3)c2c1	?
CCCn1nc2cc(C(=O)NCc3ccc(C)cc3)ccc2c1OCC	?
CCCOC(=O)c1ccc2c(c1)C(=O)N(c1ccccc1)C2=O	-4%
CCCc1cc(N2CCCC(C(=O)NCC)C2)n2ncnc2n1 (configuration not stated)	?
Cc1cc(Nc2ccc(F)c(Cl)c2)n2nc(C)nc2n1	-8%
O=C(CSc1nnc(CNC(=O)c2ccccc2F)o1)Nc1ccc2c(c1)OCCO2	-9%
CCn1c(SCc2ccc(C(=O)Nc3cc(C)cc(C)c3)cc2)nnc1-c1ccncc1	-19%
Cc1nnc(NC(=O)c2cccc(S(=O)(=O)N3CCc4ccccc43)c2)s1	-7%
CN(NC(N)=O)c1ncc(C(F)(F)F)cc1Cl	0%
COc1cccc(CNC(=O)C2CCN(S(=O)(=O)N3CCCCC3)CC2)c1	-12%
COCCCNC(=O)c1ccc(CS(=O)(=O)c2ccc(Br)cc2)o1	-10%
CC(C)CC1(C)NC(=O)N(CCN2C(=O)c3ccccc3C2=O)C1=O (configuration not stated)	-3%
Cc1cc(NC(=O)COC(=O)C2CCN(S(=O)(=O)c3c(Cl)cccc3Cl)CC2)no1	-11%
CC(C)OCCCNC(=O)C1CC(=O)N(C2CCCCCCC2)C1 (configuration not stated)	-3%
COc1cc2[nH]c(=O)n(CCC(=O)NCc3cccnc3)c(=O)c2cc1OC	-19%
O=C(NCc1ccco1)c1cc(-c2ccc(F)cc2)on1	-11%
CCCCNC(=O)CSc1nc2ccc(NC(=O)CSc3nnc(COc4ccccc4C)n3C)cc2s1	?
O=C(NC(C(=O)c1ccccc1)N1CCOCC1)c1cccs1 (configuration not stated)	-20%
C[C@@H]1CCCN(CP(=O)(c2ccccc2)c2ccccc2)C1	-8%
CC(=O)c1ccc(OCC(O)CN2CCN(Cc3ccccc3)CC2)cc1 (configuration not stated)	-18%
COC1OC(CO)C(OC2OC(C(=O)O)C(OC3OC(COS(=O)(=O)O)C(OC4OC(C(=O)O)C(OC5OC(CO)C(OC6OC(C(=O)O)C(OC7OC(COS(=O)(=O)O)C(OC8OC(C(=O)O)=C[C@H](O)C8OS(=O)(=O)O)C(O)C7NC(C)=O)[C@@H](O)C6O)C(O)C5NC(C)=O)[C@@H](O)C4O)C(O)C3NC(C)=O)[C@@H](O)C2O)C(O)C1NC(C)=O (some centres not stated)	-23%
O=S(=O)(c1ccc(NC(=S)Nc2ccc3c(c2)OCO3)cc1)N1CCOCC1	?
N#Cc1cc2c(nc1SCc1cccc(Cl)c1)CCCCC2	-1%
O=C1C(Cl)=C(N2CCN(Cc3ccccc3)CC2)C(=O)N1Cc1ccccc1	-28%
CCc1nc(CNC(=O)c2cc(OC)c(OC)c(OC)c2)no1	-11%
COc1ccc(C(=O)O)cc1S(=O)(=O)NCCCN1CCCC1=O	0%
COc1ccc(CC(=O)N2CCCc3ccccc32)cc1	-20%
COc1cccc(/C=C2/SC(=O)N(CC(=O)N3CCc4ccccc4C3)C2=O)c1OCC(=O)O	-16%
CCc1ccccc1S(=O)(=O)Cc1ccc(C(=O)N2CCN(c3ccccc3OC)CC2)o1	10%
CC(C)(C)c1ccc(/C=C/C(=O)c2ccc(NC3=NCCCS3)cc2)cc1	20µM*
Cc1ccc(CNC(=O)[C@H](C)[C@@H]2C[C@@]2(C)[C@@H](NC(=O)OCc2ccccc2)c2ccccc2)o1	-19%
COc1ccc2[nH]c3nc(SC(C)C)nnc3c2c1	-12%
CCc1ccc(OCC(=O)N/N=C(\C)c2ccccc2OC(F)F)cc1	-16%
C[C@H]1C(c2cccc(Cl)c2)=NN(c2ccccc2)[C@@H]1CO	?
COc1ccc(CCNC(=O)NC2CCCCC2)cc1	-7%
CSc1ccc(CCNC(=O)CSc2ccsc2[N+](=O)[O-])cc1	0%
O=C(/C=C1\NC2(CCCC2)Cc2ccccc21)C(=O)N/N=C/c1ccccc1O	-21%
CC(=O)N/C(=C\c1ccc(F)cc1)C(=O)OC(C)C	-9%
CCOc1ccc(OCC)c(S(=O)(=O)NCCCN2CCOCC2)c1	-4%
COc1ccc(C(=O)Nn2c(SCC(=O)NCc3ccccc3)nc3ccccc3c2=O)cc1	-22%
CCOCCCNC(=O)c1cc(Sc2ccc(C)cc2)nc2ccccc12	-20%
Cc1cc2c(ncn2Cc2ccccc2)c(NS(C)(=O)=O)c1C	-9%
COc1ccsc1C(=O)N1CCN(Cc2ccc3c(c2)OCO3)CC1	2%
O=C(Nc1ccc(Cl)cc1C(=O)NCCN1CCOCC1)c1ccco1	-7%
CCn1nccc1C(=O)Nc1ccc(Cl)cc1Cl	0%
CC(=O)OC1CCC2(C)C(COc3ccc4ccc(=O)oc4c3)C(C)(O)CCC2C1(C)C (configuration not stated)	?
CCOC(=O)c1cccc(NC(=O)C(NS(=O)(=O)c2ccc3c(c2)CCN3C(C)=O)C(C)C)c1 (configuration not stated)	5%
C=CCOC(=O)/C(=C/c1cccc2ccccc12)NC(=O)c1ccccc1	-22%

A draw from above in order of length of the SMILES, lowest first.
SMILES	HPGD inh
COc1ccc(CCNC(=O)NC2CCCCC2)cc1	-7%
CC(=O)N/C(=C\c1ccc(F)cc1)C(=O)OC(C)C	-9%
O=C(Nc1ccc(Cl)cc1C(=O)NCCN1CCOCC1)c1ccco1	-7%

Additional structures:
SMILES	HPGD inh
O=C(CCN1C(=O)COc2ccccc21)NCc1cccnc1	-16%
Cc1[nH]nc(SCC(=O)Nc2ccc(C#N)cc2)c1[N+](=O)[O-]	-26%
O=C(O)CC1S/C(=N/N=C/c2ccc(-c3ccccc3[N+](=O)[O-])o2)NC1=O (configuration not stated)	16µM*
O=C(c1cccc(F)c1)N1CCN(c2cccc(Cl)c2)CC1	-6%
COC(=O)C1=C(C)N(Cc2ccccc2)C(=O)N[C@H]1c1cccs1	-1%
CN(C)S(=O)(=O)c1ccc(S(=O)(=O)N(Cc2ccco2)Cc2ccccc2Cl)cc1	-14%
CSc1nc(-c2ccco2)cc(C(F)(F)F)c1C#N	?
O=C(N/N=C/c1ccco1)C1CC1	-10%
Cc1cc(C(=O)COC(=O)CNC(=O)c2ccco2)c(C)n1Cc1ccco1	-1%
Oc1cc2c(cc1O)[C@H](c1ccccc1)CNCC2	28µM*
CC(NC(=O)OC(C)(C)C)C(=O)Oc1ccc2ccc(=O)oc2c1 (configuration not stated)	99%[activator]
COCCn1c(SCC(=O)N2CC(=O)Nc3ccccc32)nc2ccccc21	-5%
CC1(C)C(=O)C2(CCCCC2)C(=O)OC1c1ccc(O)cc1 (configuration not stated)	-11%
CCOC(=O)c1sc(Nc2ccc(C)cc2C)nc1C	-21%
Cc1ccc(CNC(=O)c2ccc(Cl)cc2[N+](=O)[O-])cc1	0.2µM*
COc1ccc(C2=N[C@H](c3ccccc3)CO2)cc1	-13%
COc1ccc(-c2noc(Cc3ccc(Cl)cc3)n2)cc1OC	-19%
COC(=O)c1sc(=S)n(-c2cc(F)ccc2F)c1N	28µM*
Cc1cccn2cc(CSc3nnc(Nc4ccc(C(C)C)cc4)s3)nc12	-3%
Cc1cccc(NC(=O)C2(c3ccccc3)CC2(Cl)Cl)c1 (configuration not stated)	-21%
COc1ccc(-c2cc(-c3ccc(Br)cc3)nc3ncnn23)cc1OC	?
Cc1ccc(S(=O)(=O)/N=C(/NC(=S)Nc2cccc(C)c2)c2ccccc2)cc1	20µM*
CN1CCC(Oc2ccccc2Sc2ccc(C(F)(F)F)cc2)CC1	-5%
CCOc1ccc(Nc2nc(Cc3nnc(SCC(=O)NCc4ccco4)n3CC)cs2)cc1	-3%
Cn1nc(C(=O)NCc2ccccc2)c2ccccc2c1=O	-13%
COc1cccc(-c2[nH]nc3c2C(c2ccsc2)C(C#N)=C(N)O3)c1 (configuration not stated)	?
Cc1cc(=O)c(C(=O)O)cn1Nc1ccc(Cl)cc1	-10%
COC(=O)C1=C(O)/C(=C\c2ccc(CNC(=O)C(=O)Nc3ccc(C)cc3)o2)N=C1C	-21%
CCc1nnc(NC(=O)CSc2nc(-c3ccccc3)cc(-c3ccc(F)cc3)c2C#N)s1	-19%
CCCCC1=CC2=CC(=O)C(C)(OC(=O)CC)C(=O)C2=CN1c1ccc(OC)cc1 (configuration not stated)	-6%

In the list so far, these contain a tert-butyl group.
SMILES	HPGD inh
CC(C)(C)c1ccc(/C=C/C(=O)c2ccc(NC3=NCCCS3)cc2)cc1	20µM*
CC(NC(=O)OC(C)(C)C)C(=O)Oc1ccc2ccc(=O)oc2c1 (configuration not stated)	99%[activator]

Later entries
SMILES	HPGD inh
O=C(Oc1ccc(Cl)c2ccccc12)N1CCCCC1	-11%
COCCNC(=O)c1nc2c(nnn2Cc2cc(C)ccc2C)c(=O)[nH]1	0.2µM*
COc1cc(CC(=O)O)c(C(C)=O)cc1OC	-7%
Nc1nnc(SCc2cccnc2)s1	-15%
COc1cc(CC(=O)Nc2ccc3nc(C)sc3c2)cc(OC)c1OC	-15%
COc1ccc2c(c1)c1ccccc1n2C	?
Cc1cc(NC(=O)CSc2nc(CC(C)(C)C)nc3c2c(=O)n(C)c(=O)n3C)no1	-9%
COc1ccc(/C=C/C(=O)Nc2cc(C(F)(F)F)ccc2Cl)cc1	-13%
CCOC(CCn1c(SCc2cccc([N+](=O)[O-])c2)nc2ccccc2c1=O)OCC	-14%
CCNC(=O)NC(=O)COC(=O)CCCSc1nc2ccccc2[nH]1	-12%
CCN(CC)CCNC(=O)CS(=O)Cc1nc(-c2ccc(Cl)cc2)oc1C (configuration not stated)	-1%
CC(C)NC(=O)c1onc(CSc2ccccc2F)c1C(=O)O	-4%
COC(=O)[C@@H]1C[C@H]2CC[C@H](O)C[C@H]2N1Cc1ccc(N2CCOCC2)cc1	-7%
Cc1ccc(S(=O)(=O)NC(=O)c2ccc(-c3ccc(C)c4ccccc34)o2)cc1	?
CC(C)(C)C(=O)c1cnc(Nc2ccccc2Cl)s1	-22%

An excerpt taken from the entries so far, for reference:
SMILES	HPGD inh
CCNC(=O)NC(=O)COC(=O)CCCSc1nc2ccccc2[nH]1	-12%
CCN(CC)CCNC(=O)CS(=O)Cc1nc(-c2ccc(Cl)cc2)oc1C (configuration not stated)	-1%
CC(C)NC(=O)c1onc(CSc2ccccc2F)c1C(=O)O	-4%
COC(=O)[C@@H]1C[C@H]2CC[C@H](O)C[C@H]2N1Cc1ccc(N2CCOCC2)cc1	-7%
Cc1ccc(S(=O)(=O)NC(=O)c2ccc(-c3ccc(C)c4ccccc34)o2)cc1	?

Further records follow.
SMILES	HPGD inh
COc1ccc2ccc3c(c2c1)N=C[C@]1(O3)N(C)c2ccccc2C1(C)C	32µM*
CC(CCC(=O)O)C1CCC2C3C(O)C[C@@H]4CC(O)CC[C@@]4(C)C3CC(O)[C@]12C (some centres not stated)	2%
COc1ccc(-c2nc3ccccc3c(=O)n2CCOc2ccccc2C)cc1	-27%
CC(=O)Nc1ccc(S(C)(=O)=O)c(C)c1	-5%
CCC1=[N+]([O-])C(C)(/C(C)=N\O)N(O)C1(C)C (configuration not stated)	-6%
Cc1ccc2c(c1)C(=O)CCN2	-20%
N#C/C(=C\c1ccc(O)c(O)c1)C(=O)c1ccc(O)c(O)c1	7.9µM*
CCOc1cc(CNCCO)cc(Br)c1OCc1ccc(Cl)cc1Cl	-14%
CN(CCOc1ccc(Cl)cc1)c1ccc(S(=O)(=O)N2CCCCC2)cn1	?
O=c1oc(-c2ccc(Br)o2)nc2ccccc12	-28%
COC(=O)c1cn[nH]c1NC(=S)Nc1ccccc1C	-16%
Cc1ccc2nc(SCC(=O)Nc3cc(C)on3)[nH]c2c1	-7%
O=C(NCc1nc2ccccc2[nH]1)c1ccc(Cl)c(S(=O)(=O)N2CCCC2)c1	-3%
COCP(=O)(c1ccccc1)c1ccccc1	-16%
O=C(NNC(=O)c1sccc1-n1cccc1)c1cccc(Cl)c1	-12%
CCOC(=O)COc1ccc(-c2nnc(-c3ccccc3)o2)cc1	?
CCn1c(C)c(CCC(=O)O)c(=O)n2nc(-c3ccccc3OC)cc12	?

Only part of the results is shown, so the mix of outcomes need not match the whole.
